# High-throughput results as filed in PubChem BioAssay.
# Mtb bLac sens: beta-lactam sensitization of Mtb H37Rv | inhibition, % at 25 µM | AID 434955 | 330,000 compounds, 0.27% hits | M. tuberculosis H37Rv growth with meropenem, percent inhibition; hits of this screen are not shown here;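 active means about 74% or more and at least 40 points above the plate without the antibiotic, then above 30% in a dose series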;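 further: growth measured after seven days incubation then overnight dye step; 0% = bacteria only wells and 100% = bacteria with antibiotic; twin plates without the antibiotic show which effects depend on it; some results filed as inactive read as strong as hits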
# YopH inh: YopH (Yersinia) phosphatase inhibition; fluorescence Ex485/Em525; inhibition, %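 (about 10 µM by stock and volumes)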; 140,000 compounds, 0.16% hits;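 active means inhibition of 50% or more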;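 further: controls were vehicle for no effect and minimum signal wells for full effect; inactives centre near -20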
# Mtb growth: M. tuberculosis H37Rv growth inhibitors, H37Rv strain (AID 1626) | M. tuberculosis H37Rv growth inhibition; higher % means a stronger effect | 220,000 compounds, 0.95% hits | inhibition, % at 10 µM; hits with a dose series show IC50 in µM;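 active means confirmed in a dose series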;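 further: bacteria incubated seven days before Alamar blue readout; 0% = bacteria only wells and 100% = bacteria with antibiotic wells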
# RecA intein inh: inhibitors of M. tuberculosis RecA intein splicing | P9WHJ3 | cell-free RecA intein splicing, fluorescence | inhibition, %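 (about 9 µM by stock and volumes)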 | 290,000 compounds, 0.75% hits | AID 2221; in the data active means inhibition above about 30%;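 further: 0% = vehicle wells and 100% = reference inhibitor control wells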
# Target sequence (P9WHJ3 whole entry, looked up): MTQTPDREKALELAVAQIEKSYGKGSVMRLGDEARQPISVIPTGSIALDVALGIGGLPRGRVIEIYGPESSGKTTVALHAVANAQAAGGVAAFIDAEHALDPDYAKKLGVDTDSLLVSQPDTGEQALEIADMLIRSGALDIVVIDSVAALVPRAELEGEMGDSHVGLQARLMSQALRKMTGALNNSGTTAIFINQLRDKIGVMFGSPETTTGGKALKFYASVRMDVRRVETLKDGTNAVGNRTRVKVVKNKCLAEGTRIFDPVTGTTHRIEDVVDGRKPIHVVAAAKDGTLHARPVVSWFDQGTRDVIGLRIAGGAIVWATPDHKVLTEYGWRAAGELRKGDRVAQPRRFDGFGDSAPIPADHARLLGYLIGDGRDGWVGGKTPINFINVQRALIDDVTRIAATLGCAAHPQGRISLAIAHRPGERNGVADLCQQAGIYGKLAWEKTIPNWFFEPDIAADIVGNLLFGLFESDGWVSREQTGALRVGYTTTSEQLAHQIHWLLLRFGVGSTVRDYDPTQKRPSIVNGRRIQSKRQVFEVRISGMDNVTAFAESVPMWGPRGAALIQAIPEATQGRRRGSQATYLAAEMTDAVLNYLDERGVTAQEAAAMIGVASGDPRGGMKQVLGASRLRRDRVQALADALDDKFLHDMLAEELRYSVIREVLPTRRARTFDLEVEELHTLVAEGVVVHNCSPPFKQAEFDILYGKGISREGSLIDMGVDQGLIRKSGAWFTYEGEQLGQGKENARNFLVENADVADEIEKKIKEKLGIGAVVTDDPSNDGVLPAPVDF
# Arbovirus anti: antivirals against arbovirus infection. arbovirus infection cell-based antiviral screen. inhibition, % at 10 µM. 200,000 compounds, 0.37% hits. AID 1251;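 active means inhibition from about 30%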;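 further: bluetongue infection of BSR cells; cell survival read as ATP light after 72 h; 0% = infected wells without compound and 100% = uninfected wells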
# Arbovirus anti repeat: recorded beside Arbovirus anti, whose call it bears; inhibition, %; measured here: 10K subset replicate screen; many hits read low in the repeat;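 first of two repeat runs on a subset; 0% = infected and 100% = uninfected wells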
# Starred values were filed as active, the others as inactive; x = no result given. An excerpt (hit frequency here may not be typical).
SMILES,Mtb bLac sens,YopH inh,Mtb growth,RecA intein inh,Arbovirus anti,others
CCOc1ccc(N2CC(NC(=O)c3ccc4ccccc4c3)CC2=O)cc1 (stereo not drawn),4,x,x,-1.5,x,
Nc1ccccc1C(=O)N1CCCC1,2,x,2%,-1.2,2,
COc1ccc(C(=O)C(C)[n+]2ccc(C)c3ccccc32)cc1[N+](=O)[O-] (stereo not drawn),-9,x,x,-5.0,x,
CC(=O)Nc1ccc(S(=O)(=O)N2CCN(CC(O)COc3ccc4ccccc4c3)CC2)cc1 (stereo not drawn),x,-10,7%,-0.6,-13,
COc1cccc(-c2nnn(CC(=O)N3CCCCC3)n2)c1,2,x,x,1.2,x,
Cc1ccc(/C=N/NC(=O)c2ccncc2)cc1,99,x,x,-1.2,x,
O=C(N/N=C/c1ccc(Br)s1)c1ccccc1[N+](=O)[O-],-2,-41,-4%,3.1,-16,
CS(=O)(=O)N(Cc1ccccc1)c1ccccn1,-2,-23,-3%,0.1,11,
Cc1ccc2nc(/N=C(\N)NC(=O)N3c4ccccc4Sc4ccccc43)nc(C)c2c1,8,-27,95%,-3.2,2,
O=C(NCc1cccnc1)/C(=N\O)c1ccccc1,-1,3,1%,-1.7,2,
COC(=O)c1ccc(NC(=O)COc2ccc3c(c2)OCO3)cc1,53,x,x,0.0,x,
C=CCn1c(SCC(=O)N(C)C2CCS(=O)(=O)C2)nnc1-c1ccccc1 (stereo not drawn),4,x,x,1.1,x,
O=C(NC12CC3CC(CC(C3)C1)C2)N1CCN(c2ccccc2)CC1,99,x,x,1.5,x,
CC1CCCN(C(=O)c2ccc3c(=O)n(C4CCCC4)c(=S)[nH]c3c2)C1 (stereo not drawn),6,x,9%,-1.1,-3,
O=C(Nc1ccc(F)cc1)N1CCN(c2nc3ccccc3s2)CC1,2,-29,6%,1.7,-4,
COc1cccc(CN2CCNC(=O)C2CC(=O)NCc2cn3cccc(C)c3n2)c1OC (stereo not drawn),-12,x,-17%,-0.4,4,
CC(C)CC(=O)N1CCN(c2ccc(NC(=O)c3ccco3)cc2)CC1,2,x,x,-1.7,x,
O=C(Nc1ccc(NS(=O)(=O)c2ccc([N+](=O)[O-])cc2)cc1)c1ccco1,0,x,x,2.0,x,
Cc1cc(C(=O)N(C)Cc2c(F)cccc2Cl)c2ccccc2n1,-1,x,x,1.7,x,
O=C(NCC(=O)N(CCN1CCOCC1)C(C(=O)NC1CCCC1)c1ccccc1)c1cccs1 (stereo not drawn),3,x,-3%,4.4,-3,
CCOC(=O)CN1C(=O)C(C)(C)Oc2ccc(C(=O)NC(C)(C)CC)cc21,-5,-27,4%,1.5,-7,
CCN(CC(=O)Nc1ccc(C#N)c(Cl)c1)CC(=O)NC(C)(C)C,-9,x,-5%,1.1,9,
CCOc1ccc(Nc2ncnc3ccc([N+](=O)[O-])cc23)cc1,15,x,8%,x,14,
CC1=C(OC(=O)c2ccccc2)C(C)(C)C(c2ccc(Br)cc2)OC1=O (stereo not drawn),-7,-1,3%,7.0,-3,
Cc1cccnc1Oc1ncccc1N,-3,x,x,-0.6,x,

# Continued.
SMILES,Mtb bLac sens,YopH inh,Mtb growth,RecA intein inh,Arbovirus anti,others
CC(C)OC(=O)CSc1nnc(-c2cnccn2)n1-c1ccc(Cl)cc1,1,-26,5%,-2.1,10,
O=C(c1c[nH]c(C(=O)C(Cl)(Cl)Cl)c1)c1ccccc1Cl,-4,-5,-11%,32*,-2,
O=C(O)C(Oc1ccc2c(c1)oc(=O)c1ccccc12)c1ccccc1 (stereo not drawn),-2,x,x,1.0,x,
COc1ccccc1C1=NOC(COC(=O)c2ccc([N+](=O)[O-])cc2)C1 (stereo not drawn),98,x,76%,-1.1,x,
Cc1ccnc(N2CCC(C(=O)Nc3nnc(C)s3)CC2)n1,-9,-19,6%,-4.7,10,
O=C(Cn1nc(Cc2cccnc2)c2ccccc2c1=O)NCc1ccc(F)cc1,6,-18,1%,2.9,0,
O=C(Nc1ccc(F)cc1)Nc1ccccc1C(=O)NCCN1CCNC1=O,-2,x,-14%,0.6,x,
COc1ccc(C(=O)N(NC(=O)Oc2ccccc2)C(C)(C)C)cc1,-1,-22,1%,1.9,0,
O=C(COc1ccccc1Cl)Nc1ccccc1C(=O)N1CCCCC1,-5,x,x,0.8,x,
C=CCn1c(=N)c(S(=O)(=O)c2ccc(C)c(C)c2)cc2c(=O)n3ccccc3nc21,-1,x,x,-39,x,
COc1ccc(OCc2ccc(-c3nc4ccccc4c(=O)n3N)o2)cc1,-3,-24,-2%,0.5,-1,
COc1ccc(-c2cc(C(F)(F)F)nc(SCCC(=O)N3CCOCC3)n2)cc1,-3,-29,-10%,-1.0,1,
CCCS(=O)(=O)N1CCCC(C(=O)NCCCN(C)Cc2ccccc2)C1 (stereo not drawn),-3,-17,-11%,0.4,10,
O=C(O)c1ccc2c(c1)CCC2,-4,x,4%,-1.5,-2,
O=C(CCc1nc2ccccc2[nH]c1=O)OCC(=O)N1CCc2ccccc21,-6,-49,-5%,-0.6,7,
Cc1ccn2cc(C(=O)N3CCCC(Nc4ccc(F)cc4)C3)nc2c1 (stereo not drawn),-7,x,x,-2.8,x,
Cc1ccc(NC(=O)CSC(C)C(=O)OCC(=O)N2CCN(C(=O)c3ccco3)CC2)cc1 (stereo not drawn),1,x,x,1.0,x,
O=C(Nc1nnc(-c2cccnc2)o1)c1ccccc1Cl,-11,x,5%,1.7,2,
CC1(C)CC2CC(C)(CN2C(=O)c2ccccc2)C1 (stereo not drawn),7,x,5%,10,10,
O=C(O)CCC(NC(=O)OCc1ccccc1)C(=O)O (stereo not drawn),2,-34,-1%,-4.1,2,
Cc1cccc(C(=O)O/N=C(\N)Cc2cccc3ccccc23)c1,70,x,x,14,x,
Cc1cc(OCC(=O)Nc2ccncc2)ccc1Br,88,-54,17%,-2.3,8,
Fc1ccc(N2CCN(C(c3cccs3)c3nnnn3C3CCCC3)CC2)cc1 (stereo not drawn),-2,-43,3%,12,-9,
Cc1nc(SCC(=O)Nc2ccc(C)c(F)c2)c2oc3ccccc3c2n1,73,-33,3%,0.6,1,
COc1cc(C(=O)NC(=S)Nc2ccccc2[N+](=O)[O-])cc(OC)c1OC,-5,x,9%,5.5,-7,

# More structures
SMILES,Mtb bLac sens,YopH inh,Mtb growth,RecA intein inh,Arbovirus anti,others
O=C(O)c1oc2ccccc2c1CSCc1ccccc1,-3,x,-1%,-0.7,11,
Cc1noc(C)c1S(=O)(=O)N1CCC(C(=O)N2CCN(c3ccc(Cl)cc3)CC2)CC1,-5,0,x,1.5,-2,
O=C(Nc1cccc(S(=O)(=O)N2CCCC2)c1)c1cc(-c2ccccn2)nc2ccccc12,-7,x,-5%,1.0,4,
CCOc1ccc(-c2nnc(SCC(=O)N(CC)CC)n2N)cc1,4,-35,-5%,-0.9,-2,
COc1ccc(CCNC(=O)CSc2nc(C)cs2)cc1,0,1,-5%,-3.1,1,
CC(C)N(Cc1ccccc1)S(=O)(=O)c1ccc(Cl)nc1,2,x,x,2.0,x,
CN(C)c1ccc(-c2ccc([C@H]3[C@@H]4C=CCC[C@@]4(C)C(=O)N3Cc3ccccc3)c(F)c2)cc1,92,x,57%,5.9,x,
O=C(Cn1nnc2ccccc21)NNC(=S)NC1CCCCC1,13,x,-9%,-0.5,6,
COc1ccc(Nc2nc(-c3cccc([N+](=O)[O-])c3)nc3ccccc23)cc1,8,-12,18%,1.7,-2,
C/C(=N/NC(=O)c1cccs1)c1cccc(NC(=O)C2CC2)c1,69,-31,-2%,2.5,-5,
O=C(CN(Cc1ccco1)C(=O)CNS(=O)(=O)c1ccc(Cl)cc1)NCc1ccco1,4,x,x,-2.6,x,
O=C(c1ccc(Cl)c(NC2=NC3CS(=O)(=O)CC3S2)c1)N1CCN(c2ccccc2)CC1 (stereo not drawn),4,x,x,-1.6,x,
O=C(CN1CCCCCC1)NCCc1ccc(F)cc1,4,-47,-7%,x,-1,
CCCCN1CC(O)=C(c2nc3ccccc3[nH]2)C1=N,-1,-37,x,0.7,-6,
CCN(CC)C(=O)CSc1nnc2nnc3cc(Cl)ccc3n12,97,x,1.2µM*,42*,x,
COc1ccccc1NC(=O)Cn1nnc(C(=O)Nc2ccccc2)c1N,-3,-39,1%,-0.2,-6,
COc1ccc(C2c3c(ncn(CCN4CCOCC4)c3=N)Oc3ccc4ccccc4c32)cc1 (stereo not drawn),26,14,2%,5.9,-20,
COC(=O)Cc1ccc(NC(=S)N2CCCCC2C)cc1 (stereo not drawn),12,x,80%,1.2,0,
O=C(NCc1ccccc1)NC1CC2CCC(C1)N2Cc1ccco1 (stereo not drawn),3,-43,-7%,0.9,5,
Clc1ccc(CN2CCC(c3nc4ccc(Cl)cc4[nH]3)CC2)cc1,56,-34,x,3.3,-24,
COCC(=O)Nc1cc(C(=O)OC)cc(C(=O)OC)c1,-4,-9,0%,-2.8,4,
CCC(C(=O)OCC(=O)Nc1c(C)n(C)n(-c2ccccc2)c1=O)c1ccccc1 (stereo not drawn),0,-6,7%,-0.3,9,
COc1ccc(-c2ccnc(SCC(=O)c3ccc(Br)cc3)n2)cc1,15,-8,11%,0.6,11,
COc1ccc(NC(=O)CN2C(=O)NC(C)(c3ccc(C)cc3)C2=O)c([N+](=O)[O-])c1 (stereo not drawn),7,x,x,-0.1,x,
CC1Cc2cc(/C(O)=C3/C(=O)C(=O)N(CCCn4ccnc4)C3c3ccncc3)ccc2O1 (stereo not drawn),-1,-32,-1%,1.1,4,

# The list continues:
SMILES,Mtb bLac sens,YopH inh,Mtb growth,RecA intein inh,Arbovirus anti,others
O=C(Nc1nnc(SCc2c(Cl)cccc2Cl)s1)C1CCCO1 (stereo not drawn),-7,-38,1%,-0.3,0,
COc1ccc(C(=O)/C=C/c2ccc(OCc3ccccc3)cc2)cc1CSCC(=O)O,69,x,x,21,x,
COC(=O)c1cc(COc2ccc3c4c(c(=O)oc3c2)CCCC4)c(C)o1,0,-37,x,-3.6,-1,Arbovirus anti repeat=-2
Cc1ccc(-c2nn(-c3ccccn3)c(=O)c3ccccc23)cc1,37,x,1%,1.4,-2,
O=C(NC1CCN(C(=O)Nc2cccc(Cl)c2)CC1)C1CCCCC1,3,x,x,-7.0,x,
CCOC(=O)N1CCN(C(=O)c2ccc(SC)cc2OC)CC1,-5,x,-5%,-1.3,3,
COc1ccc(Cc2c(O)nc(SC)n(C(C)=O)c2=O)cc1,-8,-43,8%,0.8,-2,
CCc1ccc(C(=O)Cc2cc3cccc(OC)c3oc2=O)cc1,4,x,x,0.9,x,
Cn1nc(C(C)(C)C)cc1C(=O)NNC(=O)c1cccc(Cl)c1,-6,x,-5%,3.5,x,
COc1cc(NC(=S)NCCc2ccc(S(N)(=O)=O)cc2)c(OC)cc1Cl,-1,x,0%,0.6,-1,
CC(C)(C)c1ccc(OCCn2ccccc2=O)cc1,-1,-16,3%,-7.8,0,
CCOC(=O)c1cc(C)n(CCCN2CCOCC2)c1C,-1,2,-4%,2.8,5,
CCCC(=O)Nc1nc2ccc(NC(=O)c3ccc(Br)o3)cc2s1,-9,-6,-2%,6.6,3,
O=c1c2ccccc2nc2c3ccccc3cnn12,-2,x,2%,x,5,
CCN1C(=O)/C(=C\N(C)C)c2ccccc21,-8,-37,-6%,3.1,-5,
O=C(c1ccccc1)c1cccn1CC(=O)N1CCN(C2CCCCC2)CC1,-9,-34,0%,0.4,0,
O=C(NCCN1CCCC(O)C1)c1cc(COc2c(F)cccc2F)on1 (stereo not drawn),2,x,x,1.2,x,
COC(=O)c1cnn(-c2ccc(F)cc2F)c1/C=N/NC(N)=S,-11,x,-3%,-0.1,x,
O=C(CCl)Nc1ccccc1C(=O)NCc1ccccc1,99,x,8.2µM*,28,17,
NS(=O)(=O)c1ccc(NC(=O)CCC(=O)N2CCOCC2)cc1,-1,x,x,-0.9,x,

# Structural class, the entries above with two or more sulfur atoms (5)
SMILES,Mtb bLac sens,YopH inh,Mtb growth,RecA intein inh,Arbovirus anti,others
C=CCn1c(SCC(=O)N(C)C2CCS(=O)(=O)C2)nnc1-c1ccccc1 (stereo not drawn),4,x,x,1.1,x,
COc1ccc(CCNC(=O)CSc2nc(C)cs2)cc1,0,1,-5%,-3.1,1,
O=C(c1ccc(Cl)c(NC2=NC3CS(=O)(=O)CC3S2)c1)N1CCN(c2ccccc2)CC1 (stereo not drawn),4,x,x,-1.6,x,
O=C(Nc1nnc(SCc2c(Cl)cccc2Cl)s1)C1CCCO1 (stereo not drawn),-7,-38,1%,-0.3,0,
COc1cc(NC(=S)NCCc2ccc(S(N)(=O)=O)cc2)c(OC)cc1Cl,-1,x,0%,0.6,-1,
